VDR inh – Inhibitors of the vitamin D receptor (VDR): qHTS. Potency, µM, for the others: max response, negative = inhibition, hits mostly inhibitors. VDR-SRC2-3 peptide fluorescence polarization, 2 h. actives 0.93% (n = 400,000). Vitamin D3 receptor (Homo sapiens), P11473; active means well fitted inhibition curve with a large enough effect; inconclusive means small, poorly fitted or top-dose-only effect, or another doubt; inactive means no such curve, though single readings can be large or run the other way; further: series mostly up to about 120 µM
Target sequence (P11473 whole entry, looked up): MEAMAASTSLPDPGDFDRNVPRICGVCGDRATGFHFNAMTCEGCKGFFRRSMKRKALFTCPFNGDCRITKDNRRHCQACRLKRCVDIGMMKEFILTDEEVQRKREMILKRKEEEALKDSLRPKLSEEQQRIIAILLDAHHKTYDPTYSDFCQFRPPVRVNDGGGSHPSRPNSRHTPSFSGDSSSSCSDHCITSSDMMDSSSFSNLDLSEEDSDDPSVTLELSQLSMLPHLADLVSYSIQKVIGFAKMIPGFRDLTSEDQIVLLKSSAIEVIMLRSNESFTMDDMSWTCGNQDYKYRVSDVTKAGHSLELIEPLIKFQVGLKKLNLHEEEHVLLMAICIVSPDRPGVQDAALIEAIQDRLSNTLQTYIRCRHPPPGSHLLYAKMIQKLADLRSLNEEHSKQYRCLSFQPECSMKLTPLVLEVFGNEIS
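FP read-out; VDR + SRC2-3 coactivator peptide; 23 nl compound by pintool; 2 h RT incubation; reagents held at 4 deg C, protected from light.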
Active calls of the source: *; ? = inconclusive; & = joins results of further samples. On the % scale 0 is the no-effect control and ±100 the full control effect; potency means the concentration at half of the fitted maximal effect. These rows are one share of the data, so the mix of outcomes need not match the whole.

SMILES	VDR inh
O=[N+]([O-])c1ccccc1S(=O)(=O)Nc1ccc(S(=O)(=O)N2CCOCC2)cc1	-1%
CCCn1c(N)c(C(=O)CSc2nc(C)nc3sc(C)c(C)c23)c(=O)[nH]c1=O	-1%
CC1=C(C(=O)OC2CCCCCCC2)C(c2ccc(O)cc2)NC(=O)N1 (centres undefined)	-2%
CC(C)Cn1nc(NC(=O)c2cccs2)c2cc3ccccc3nc21	-28%
O=C(CSc1ccc(-c2cccnc2)nn1)Nc1ccc(Br)cc1	-1%
Cc1ccc(OCCn2cc(C(=O)O)c3ccccc32)cc1	-17%
Cc1ccc(C(=O)OCc2cc(=O)n3nc(-c4cccs4)sc3n2)cc1	9%
CCN(CC)Cc1cc(C(=O)O)c(C)o1	5%
Cc1ccccc1OCC(=O)Nc1cccc(Cl)c1C	-9%
CN(C)c1ccc(/C=C2\SC(=O)N(CC(O)Cn3c4ccccc4c4ccccc43)C2=O)cc1 (centres undefined)	-10%
Cc1c(C)c2ccc(OCC(=O)N[C@@H](Cc3c[nH]c4ccccc34)C(=O)O)cc2oc1=O	-15%
CCn1c(SCc2nc3ccccc3[nH]2)nnc1-c1ccncc1	-2%
Cc1ccc(Nc2ncnc3c2nc2n3CCCC2)cc1F	8%
CC(=O)c1sc(NC(=O)c2ccccc2C)nc1C	18%
CC(C)(Oc1ccc(Cl)cc1)C(=O)NCc1ccc(S(N)(=O)=O)cc1	4%
COCCCNC(=S)N1CCC(C(=O)c2ccc(Cl)cc2)CC1	-24%
CCn1c(=O)c2sccc2n2c(CCCC(=O)N3CCN(c4cc(C)ccc4C)CC3)nnc12	5%
CCOC(=O)C1CCCN(C(=O)CS(=O)(=O)Cc2ccccc2)C1 (centres undefined)	-15%
O=C(CSc1nnc(-c2cccnc2)n1Cc1ccco1)c1ccccc1	-16%
Cc1nc(SCC(=O)c2cccs2)c2oc3ccccc3c2n1	-12%
COc1ccc(CC(=O)Nc2ccc(F)c(S(=O)(=O)N3CCOCC3)c2)cc1	?
CCO[C@H]1OC(C(N)=O)=C[C@@H](C)[C@@H]1CCCO	5%
COc1ccc(COC(=O)c2ccc(C)c(S(=O)(=O)N3CCOCC3)c2)cc1F	11%
CC12CCC(C(=Nc3ccc(N=C4C(=O)C5(C)CCC4C5(C)C)cc3)C1=O)C2(C)C	-9%
OCCN(Cc1ccccc1)Cc1nc(CC2CC2)no1	-5%

The list continues.
SMILES	VDR inh
O=C(N/N=C/c1cc(Cl)ccc1O)c1cccnc1	7%
O=C(NC1CCCCC1)c1sc(=S)n2c1[nH]c(=O)c1ccccc12	?
O=C1NC(=O)C(=Cc2ccc(Cl)c(Cl)c2)S1	-21%
O=c1c(-c2ccc(F)c(F)c2)nc2cncnc2n1Cc1ccc(F)cc1	-13%
COc1ccc(C(O)P(=O)(OCCC(C)C)c2ccc(N(C)C)cc2)cc1OC (centres undefined)	15%
CCOC(=O)c1sc2c(c1C)c(=O)n(Cc1ccccc1)c(=O)n2CCN(C)C	0%
O=C(c1csnn1)N1CCC2(CCN(Cc3nccs3)CC2)CC1	-2%
COCCCNC(=S)NNC(=O)c1ccccc1Br	-17%
CC(NC(=O)c1cccc(S(=O)(=O)N2CCN(C)CC2)c1)c1ccc(Cl)cc1Cl (centres undefined)	-12%
Cc1cc(=O)n(Cc2ccccc2)c(O)c1C#N	-11%
O=C(Nc1ccc(Cl)c(Cl)c1)OCCNC(=O)c1cccc(Cl)c1	-3%
CCc1cc(OCCN2C(=O)NC(C)(C)C2=O)ccc1Cl	11%
NC(=O)C1=C[C@@H](c2ccc(Br)cc2)C[C@@H](OCc2ccc(CO)cc2)O1	2%
COc1ccc(NC(=O)CCc2nnc3n(Cc4ccc(C)cc4)c(=O)c4ccccc4n23)cc1	-1%
CC(NC(=O)CN(C)Cc1cccs1)c1ccccc1 (centres undefined)	5%
CN(Cc1ccccc1)c1nc2c(c(=O)n(C)c(=O)n2C)n1CCCc1ccccc1	-6%
C[C@H](CO)N1C[C@H](C)[C@@H](CN(C)Cc2ccc(C(=O)O)cc2)Oc2c(NS(=O)(=O)c3ccc(F)cc3)cccc2C1=O	-6%
O=C(NC1CCCCC1)C1CCCN1S(=O)(=O)c1ccc(Cl)cc1 (centres undefined)	-19%
Cc1[nH]c(=O)[nH]c(=O)c1S(=O)(=O)N1CCCC(C(=O)N2CCN(c3ccccc3Cl)CC2)C1 (centres undefined)	-13%
COc1ccc(-n2c(COc3cccc(C)c3)nnc2SCC(=O)O)cc1	2%
CC[C@@H]1C(=O)[C@H](Cc2ccccc2)[C@H]2CCCC(=O)N3CC[C@@H]1[C@@H]23	-12%
CCOc1ccc(-c2cn(-c3ccccc3OC)c(=S)[nH]2)cc1	0%
COC(=O)c1ccc[n+](CC(=O)Nc2ccc(OC(F)F)cc2)c1	-3%
O=C(O)c1cc2n(n1)C(C(F)(F)F)CC(C1CC1)N2 (centres undefined)	?
O=C(NCCCc1ccccc1)C1CCC(=O)N(CCc2ccc(Cl)cc2)C1 (centres undefined)	-12%

The results go on.
SMILES	VDR inh
CCOC(=O)CNC(=O)Cn1cnc2c(nnn2-c2cccc(Cl)c2)c1=O	16%
CCOc1ccc(S(=O)(=O)N(CC(N)=O)c2ccc(C)cc2)cc1	9%
Cc1nc2sccn2c(=O)c1CCN1CCC(=C(c2ccccc2)c2ccc(F)cc2)CC1	-9%
COc1cccc(/C=C2\SC(=O)N(CCC(=O)NCCCn3ccnc3)C2=O)c1	-11%
COCCN1Cc2cccc(C(=O)Nc3ccc(C(=O)OC)cc3)c2C1=O	-16%
CC1CCN(C(=O)C(Cc2ccccc2)n2cccc2)CC1 (centres undefined)	-9%
CN1CCN(C(=S)Nc2cccc(C(F)(F)F)c2)CC1	-18%
Cc1cc(C)c(C#N)c(OCc2ccc(Cl)nc2)n1	-4%
O=C(COC(=O)c1cccs1)Nc1cccc(S(=O)(=O)N2CCOCC2)c1	14%
COc1cccc(-c2c(C(=O)N/N=C(\C)COc3ccccc3)nnn2-c2nonc2N)c1	-19%
Cc1cc(Cl)ccc1OC(C)C(=O)Nc1ccc(S(=O)(=O)Nc2cnc3ccccc3n2)cc1 (centres undefined)	-63%
COCC(=O)Nc1nnc(CCc2ccccc2)s1	-10%
COc1ccc(S(=O)(=O)NCC(=O)N(CC(=O)NCC2CCCO2)Cc2ccc(F)cc2)cc1 (centres undefined)	-2%
CCOc1ccc(NC(=O)CSc2nnc(C)n2CC2CCCO2)cc1 (centres undefined)	-3%
Cc1nn(CC(=O)NCc2ccccc2)c(=O)c2ccccc12	-1%
COc1ccc(OC)c(NC(=O)Cn2c(=O)oc3cc(S(=O)(=O)NCc4ccccc4)ccc32)c1	2%
C/C(=N\OC(=O)Nc1ccc(Cl)cc1)c1ncc(C(F)(F)F)cc1N1CCOCC1	-13%
O=C(COC(=O)c1cccs1)Nc1ccc(S(=O)(=O)N2CCOCC2)cc1	-10%
CCc1ccccc1NC(=O)c1ccc2c(c1)CCCN2S(C)(=O)=O	1%
O=C(CN1CCS(=O)(=O)CC1)N/N=C/c1cccc(C(F)(F)F)c1	2%
CC1CCN(c2c(NCC3CCC(C(=O)NCCCc4ccccc4)CC3)c(=O)c2=O)CC1 (centres undefined)	23%
CC(=O)Nc1ccc(-n2c(=O)c3ccccc3c3ccccc3c2=O)cc1	?
CC(C)(C)OC(=O)N1CCC(CC2CC(c3ccccc3)=NO2)(C(=O)O)CC1 (centres undefined)	-15%
C/C(N)=C(/C#N)C(=O)COC(=O)c1ccncc1	-2%
Cc1ccc(NC(=O)C2Cc3ccccc3C(=O)O2)cc1 (centres undefined)	-14%

The list continues:
SMILES	VDR inh
COc1ccc(CNC(=O)Cn2nc(C)c3c(C)n(-c4ccccc4)nc3c2=O)cc1OC	4%
COC(CNC(=O)c1cn(C)c2ccc(S(=O)(=O)N3CCOCC3)cc2c1=O)OC	18%
CN1/C(=C/C2CC(=O)N(c3ccc([N+](=O)[O-])cc3)C2=O)C(C)(C)c2ccccc21 (centres undefined)	-18%
CCOc1ncccc1C(=O)OCC(=O)Nc1ccc(S(=O)(=O)N2CCOCC2)cc1	-14%
COc1ccc2c(c1)O[C@H](c1ccc3c(c1)OCO3)[C@@H](OC(=O)NCCOc1ccccc1)C2=O	-2%
Cc1ccccc1N(C)S(=O)(=O)c1nnc(NC(=O)c2ccco2)s1	-24%&-3%
Cc1nn(-c2ccccc2)c(C)c1NC(=O)COc1ccc(F)cc1Cl	-26%
O=C(Cn1cnc2c(oc3nc4c(cc32)CCCC4)c1=O)Nc1cccc(Cl)c1	3%
C=CCN(Cc1ccc(OC)c(OC)c1)C(=O)N1CCOCC1	2%
CCCC[n+]1ccn(C2=C([O-])c3ccccc3C(=O)/C2=N\S(=O)(=O)c2ccc(Cl)cc2)c1	-14%
O=C(O)/C=C/C(=O)Nc1cccc(C(F)(F)F)c1	11%
O=C(NCCc1ccccc1)c1ccc2c(c1)CCN2S(=O)(=O)c1ccc(Br)cc1	9%
Cc1cccc(NC(=O)C(=O)NCC(c2ccc3c(c2)OCO3)N2CCN(c3ccccc3)CC2)c1 (centres undefined)	5%
CCOC(=O)c1sc(NC(=O)Cn2nnc3sc4c(c3c2=O)CCC(C(C)(C)C)C4)nc1C (centres undefined)	-10%
CCOc1ccc(NC(=O)c2c(NCc3ccc(C)o3)sc3c2CCCCC3)cc1	-18%
CN(C(=O)/C=C/c1ccc2c(c1)OCO2)c1ccccc1	4%
Cc1cc(C)nc(NC(=NCCc2c[nH]c3ccccc23)NC(=O)C(C)(C)C)n1	7%
Cc1cc(C)c(S(=O)(=O)Nc2ccccc2C(=O)N2CCOCC2)c(C)c1	-4%
CC(C)(C)NC(=S)NCCc1ccccc1	-22%
Cc1ccc(C)c(S(=O)(=O)N2CCN(C(=O)Cn3[nH]c(=O)c4ccccc4c3=O)CC2)c1	1%
COc1ccc(OC)c(S(=O)(=O)NC2CCCCC2)c1	10%
Cc1cc(C)c(S(=O)(=O)/N=C2/C=C(SCC(=O)O)C(=O)c3ccccc32)cc1C	7.9µM*
N#Cc1c(NC(=O)c2ccncc2)sc2c1CCC2	16%
COc1ccc(S(=O)(=O)N2CC(=O)Nc3ccccc32)cc1C	-8%
O=C(CCCN=C1NS(=O)(=O)c2ccccc21)OCC(=O)c1ccccc1	-8%

(cont.)
SMILES	VDR inh
CCOC(=O)c1[nH]c(C)c(C(=O)OCC(=O)NCc2ccc(OC)c(OC)c2)c1C	11%
N#CC1=C2SCN(Cc3ccccc3)CN2C(=O)CC1c1ccc2c(c1)OCO2 (centres undefined)	50µM*
S=C1NC(c2ccccc2)=NCN1c1ccccc1	0%
N#Cc1ccccc1Cn1c(=O)n(C2CCCC2)c(=O)c2ccccc21	-19%
Cc1nnc(NC(=O)c2cccc(F)c2)s1	11%
CCOC(=O)n1c(=O)n(C)c2ccc(Br)cc21	8%
O=C1/C(=C\c2ccc(O)c(O)c2)N=C2CCCCCN12	-3%
O=C(O)CCCC(=O)Nc1cccc(C(=O)Nc2ccccc2C(=O)O)c1	-7%
O=C1CSC(=Nc2cccc([N+](=O)[O-])c2)N1	-15%
COc1ccc(S(=O)(=O)N2CCOCC2)cc1NC(=O)CN1CCCCCC1	-4%
Cc1ccc(CNc2ccc(CNc3ncn[nH]3)cc2)cc1	-11%
COc1cc(C)c(CNc2cccc(C)c2)cc1C	2%
Cc1cc(C)n2nc(C(=O)Nc3nccs3)nc2n1	-5%
CCCN=C1N(C)C[C@@H]2[C@@H]3C(=O)N(C)C(=O)[C@@H]3[C@](Cc3ccccc3)(C(=O)OC)N12	7%
CCN(c1ccccc1)S(=O)(=O)c1ccc(NC(=O)c2cc(=O)c3cc(C)c(C)cc3o2)cc1	-1%
COC(=O)C(Cc1cnc(Cl)s1)(C(=O)OC)c1ccccc1[N+](=O)[O-]	-16%
Cc1ccc(C)c(N(C)C(=O)c2cc3c(s2)-c2ccccc2OC3)c1	-4%
N#Cc1ccc(C(=O)Nn2cnnc2)cc1	2%
CC(OC(=O)C1CSC2(C)CCC(=O)N12)C(=O)Nc1ccc(F)cc1 (centres undefined)	1%
COc1cccc(-n2c(SCC(=O)Nc3nc4ccccc4s3)nc3ccccc3c2=O)c1	-2%
